NOMO-1 viab: STK33 inhibitor candidate reducing NOMO-1 cell viability; 37,000 compounds, 7.5% hits; inhibition, % (concentration not given with the values); AID 2330; NOMO-1 AML viability, CellTiter-Glo luminescence, 72 h;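 active means most replicates above 80%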;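 further: wells of about 30 µL received 25 nL stock; 0% = median of vehicle wells and 100% = reference inhibitor level; the first replicate is given; inactives centre near 10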
* hit, by the source's call.

Preview (ten entries):
Screening CC(C)(C)c1nc2scc(-c3ccccc3)c2c(=O)o1 returned NOMO-1 viab 9.1.
COc1cc(C2NC(=O)NC(c3ccccc3)=C2C(C)=O)ccc1OCC(=O)O (configuration not stated) was read as NOMO-1 viab 29.5.
COC(=O)c1ccc(NC(=O)CN(c2ccc(C)cc2C)S(C)(=O)=O)cc1 was read as NOMO-1 viab 12.5.
Screening COc1ccc(S(=O)(=O)N(C)C[C@@H]2Oc3ccc(NC(=O)Nc4ccc(F)cc4)cc3CC(=O)N([C@H](C)CO)C[C@H]2C)cc1 returned NOMO-1 viab 14.6.
COc1ccc(S(=O)(=O)N(C)C[C@@H]2Oc3c(NC(=O)c4nc5ccccc5s4)cccc3C(=O)N([C@@H](C)CO)C[C@@H]2C)cc1 was read as NOMO-1 viab 39.0.
For Cn1c(Cc2cccs2)nnc1SCC(=O)N1CCc2ccccc21 the results were NOMO-1 viab -3.6.
Clc1ccc(Nc2ccc(-c3ccccc3)nn2)cc1 was read as NOMO-1 viab 32.4.
For COc1cccc(NC(=O)CNS(=O)(=O)c2cc(Cl)ccc2Cl)c1 the results were NOMO-1 viab -4.3.
Screening C[C@@H]1CN([C@@H](C)CO)C(=O)c2cc(NC(=O)C3CC3)ccc2O[C@H]1CN(C)S(=O)(=O)c1cccs1 returned NOMO-1 viab 12.3.
For Cc1noc(C)c1NC(=O)Nc1ccc2c(c1)C(=O)N([C@H](C)CO)C[C@H](C)[C@@H](CN(C)Cc1ccc(C(F)(F)F)cc1)OCCCC[C@@H](C)O2 the results were NOMO-1 viab 48.8.

The list itself, from the start:
Screening CC(C)(C)c1nc2scc(-c3ccccc3)c2c(=O)o1 returned NOMO-1 viab 9.1.
COc1cc(C2NC(=O)NC(c3ccccc3)=C2C(C)=O)ccc1OCC(=O)O (configuration not stated) was read as NOMO-1 viab 29.5.
COC(=O)c1ccc(NC(=O)CN(c2ccc(C)cc2C)S(C)(=O)=O)cc1 was read as NOMO-1 viab 12.5.
Screening COc1ccc(S(=O)(=O)N(C)C[C@@H]2Oc3ccc(NC(=O)Nc4ccc(F)cc4)cc3CC(=O)N([C@H](C)CO)C[C@H]2C)cc1 returned NOMO-1 viab 14.6.
COc1ccc(S(=O)(=O)N(C)C[C@@H]2Oc3c(NC(=O)c4nc5ccccc5s4)cccc3C(=O)N([C@@H](C)CO)C[C@@H]2C)cc1 was read as NOMO-1 viab 39.0.
For Cn1c(Cc2cccs2)nnc1SCC(=O)N1CCc2ccccc21 the results were NOMO-1 viab -3.6.
Clc1ccc(Nc2ccc(-c3ccccc3)nn2)cc1 was read as NOMO-1 viab 32.4.
For COc1cccc(NC(=O)CNS(=O)(=O)c2cc(Cl)ccc2Cl)c1 the results were NOMO-1 viab -4.3.
Screening C[C@@H]1CN([C@@H](C)CO)C(=O)c2cc(NC(=O)C3CC3)ccc2O[C@H]1CN(C)S(=O)(=O)c1cccs1 returned NOMO-1 viab 12.3.
For Cc1noc(C)c1NC(=O)Nc1ccc2c(c1)C(=O)N([C@H](C)CO)C[C@H](C)[C@@H](CN(C)Cc1ccc(C(F)(F)F)cc1)OCCCC[C@@H](C)O2 the results were NOMO-1 viab 48.8.
For CCOC(=O)c1ccc(NC(=O)CN2c3cccc4cccc(c34)S2(=O)=O)cc1 the results were NOMO-1 viab 22.3.
For CC(C)C[C@@H](/C=C/S(C)(=O)=O)NC(=O)[C@H](CC(C)C)NC(=O)[C@H](CC(C)C)NC(=O)OCc1ccccc1 the results were NOMO-1 viab 97.6*.
Screening CNC[C@@H]1Oc2c(NS(=O)(=O)c3ccc(Cl)cc3)cccc2C(=O)N([C@H](C)CO)C[C@@H]1C returned NOMO-1 viab 9.9.
C[C@@H]1CN([C@H](C)CO)C(=O)c2cc(NS(=O)(=O)c3ccccc3)ccc2O[C@H]1CN(C)C(=O)Nc1cccc2ccccc12 was read as NOMO-1 viab -15.1.
For C[C@@H]1CN([C@@H](C)CO)C(=O)c2cccc(NC(=O)Nc3ccc(F)cc3)c2O[C@H]1CN(C)Cc1ccc2c(c1)OCO2 the results were NOMO-1 viab 113.2*.
Screening COc1ccccc1NC(=O)CNC(=O)c1ccc([N+](=O)[O-])cc1 returned NOMO-1 viab -19.0.
`CC(Oc1ccc2ccccc2c1)C(=O)NN` (configuration not stated) gave NOMO-1 viab 20.9.
Screening C[C@@H]1CN([C@H](C)CO)C(=O)Cc2cc(NC(=O)CCN3CCOCC3)ccc2O[C@@H]1CN(C)Cc1ccc(C(=O)Nc2ccccc2N)cc1 returned NOMO-1 viab 37.8.
Screening C[C@@H]1CN([C@@H](C)CO)C(=O)c2cc(NS(=O)(=O)c3ccccc3)ccc2O[C@@H]1CN(C)S(=O)(=O)c1ccc(Cl)cc1 returned NOMO-1 viab 13.7.
COc1ccc(NC(=O)Nc2cccc3c2O[C@H](CN(C)C(=O)Nc2c(C)noc2C)[C@@H](C)CN([C@@H](C)CO)C3=O)cc1 was read as NOMO-1 viab 28.7.
C[C@H]1CN([C@@H](C)CO)C(=O)c2cccc(NS(=O)(=O)c3cn(C)cn3)c2O[C@@H]1CN(C)CC1CCCCC1 was read as NOMO-1 viab 7.5.
For Cc1noc(C)c1NC(=O)Nc1ccc2c(c1)CC(=O)N([C@@H](C)CO)C[C@H](C)[C@H](CN(C)Cc1ccc(C(F)(F)F)cc1)O2 the results were NOMO-1 viab 59.0.
Screening O=C(Nc1sc2c(c1C(=O)NCc1cccnc1)CCCCC2)c1ccccc1 returned NOMO-1 viab 9.9.
Screening CCN(CC(=O)Nc1ccccc1)S(=O)(=O)c1ccc(OC)cc1 returned NOMO-1 viab 19.8.
Cc1ccc(NC(=O)COc2ccc(CO)cc2Br)cc1 was read as NOMO-1 viab -4.9.
`Cc1ccc(NC(=O)c2ccc(OC(=O)CN3C(=O)c4ccccc4C3=O)cc2)cc1` gave NOMO-1 viab 42.8.
C[C@H]1CN([C@@H](C)CO)C(=O)c2cc(NC(=O)Nc3cccc4ccccc34)ccc2O[C@@H]1CN(C)Cc1ccc(-c2ccccc2)cc1 was read as NOMO-1 viab 101.7*.
Screening C[C@@H]1CN([C@H](C)CO)C(=O)c2cc(NC(=O)C3CCCCC3)ccc2O[C@H]1CN(C)C(=O)Nc1ccc(F)cc1 returned NOMO-1 viab 18.1.
COc1ccc(OC)c(S(=O)(=O)NCc2cccnc2)c1 was read as NOMO-1 viab 3.0.
For C[C@@H]1CN([C@@H](C)CO)C(=O)c2cccc(NC(=O)Nc3ccc(C(F)(F)F)cc3)c2O[C@H]1CN(C)Cc1ccc(-c2ccccc2)cc1 the results were NOMO-1 viab 77.3.
For Cc1cc(C)c(NC(=O)C(C)N(c2ccccc2)S(C)(=O)=O)c(C)c1 (configuration not stated) the results were NOMO-1 viab -7.8.
Screening CCOC(=O)c1cc(C#N)c(N2CCN(C(=O)c3snnc3C)CC2)nc1C(F)(F)F returned NOMO-1 viab 21.6.
COc1ccc(-c2nnc(SCC(=O)N3c4ccccc4Sc4ccccc43)n2C)cc1 was read as NOMO-1 viab 29.7.
Cc1noc(C)c1NC(=O)N(C)C[C@@H]1Oc2ccc(NS(=O)(=O)c3cccs3)cc2CC(=O)N([C@@H](C)CO)C[C@@H]1C was read as NOMO-1 viab -3.8.
Screening C[C@H]1CN([C@@H](C)CO)C(=O)Cc2cc(NC(=O)c3ccncc3)ccc2O[C@@H]1CN(C)C(=O)Nc1ccccc1 returned NOMO-1 viab 23.5.
`Fc1ccccc1-c1nnc(SCc2ccc(Br)cc2)n1Cc1ccco1` gave NOMO-1 viab 31.0.
Screening COc1ccc(NC(=O)Nc2cccc3c2O[C@H](CN(C)Cc2ccc(C(F)(F)F)cc2)[C@H](C)CN([C@@H](C)CO)C3=O)cc1 returned NOMO-1 viab 47.1.
Screening O=C(CN1C(=O)CN(c2ccccc2)C1=O)Nc1ccccc1[N+](=O)[O-] returned NOMO-1 viab 1.6.
Screening COc1c(CC=C(C)C)c2c(c3oc(=O)c(-c4ccc(OC(C)=O)cc4)c(OC(C)=O)c13)C=CC(C)(C)O2 returned NOMO-1 viab 32.0.
Screening Cc1ccc2oc3c(c(=O)c2c1)C(c1ccc(OCC(N)=O)cc1)N(c1nc(C)c(C)s1)C3=O (configuration not stated) returned NOMO-1 viab 32.3.
For COc1ccc(-c2nc(Nc3nc(C)cc(C)n3)n[nH]2)cc1OC the results were NOMO-1 viab -5.4.
For Cc1cc(C(=O)Nc2cccc3c2O[C@@H](CN(C)Cc2ccc4c(c2)OCO4)[C@@H](C)CN([C@H](C)CO)C3=O)n(C)n1 the results were NOMO-1 viab 32.3.
`COc1ccc(S(=O)(=O)Nc2ccc3c(c2)CC(=O)N([C@@H](C)CO)C[C@H](C)[C@H](CN(C)C)O3)cc1` gave NOMO-1 viab 6.8.
Screening C[C@@H]1CCCCO[C@@H](CN(C)S(=O)(=O)c2cn(C)cn2)[C@@H](C)CN([C@H](C)CO)C(=O)c2cc(NC(=O)Nc3cccc4ccccc34)ccc2O1 returned NOMO-1 viab 7.3.
For C[C@H](CO)N1C[C@H](C)[C@H](CN(C)S(C)(=O)=O)Oc2ccc(NC(=O)Nc3ccc4c(c3)OCO4)cc2CC1=O the results were NOMO-1 viab 37.7.
Screening C[C@H](CO)N1C[C@H](C)[C@H](CN(C)S(=O)(=O)c2ccc(Cl)cc2)Oc2c(NS(=O)(=O)c3cccs3)cccc2C1=O returned NOMO-1 viab 6.7.
`C[C@@H]1CN([C@@H](C)CO)C(=O)Cc2cc(N(C)C)ccc2O[C@@H]1CN(C)Cc1ccncc1` gave NOMO-1 viab -6.8.
Screening CC(=O)Nc1ccccc1-c1nnc(SCc2ccccc2Cl)[nH]c1=O returned NOMO-1 viab 29.8.
For C[C@@H]1CCCCO[C@@H](CN(C)C(=O)NC2CCCCC2)[C@@H](C)CN([C@H](C)CO)C(=O)c2cc(NC(=O)Nc3cccc4ccccc34)ccc2O1 the results were NOMO-1 viab 9.9.
For Cn1c(SCc2nc(-c3ccccc3)no2)nnc1-c1ccco1 the results were NOMO-1 viab -17.6.
`COc1ccc(CN(C)C[C@H]2Oc3ccc(NC(=O)NC(C)C)cc3C(=O)N([C@H](C)CO)C[C@H]2C)cc1` gave NOMO-1 viab 13.4.
For O=C(NCCCN1CCOCC1)c1cnn2c(C(F)F)cc(-c3ccccc3)nc12 the results were NOMO-1 viab 23.5.
`C[C@@H]1CN([C@H](C)CO)C(=O)Cc2cc(NS(=O)(=O)c3ccccc3)ccc2O[C@@H]1CN(C)Cc1ccc2c(c1)OCO2` gave NOMO-1 viab 2.6.
For COc1ccc(C(=O)CSc2nc(C)[nH]c2[N+](=O)[O-])cc1Br the results were NOMO-1 viab 12.7.
`CCC(Sc1nnc2c3ccccc3n(C)c2n1)C(=O)Nc1ncccc1Cl` (configuration not stated) gave NOMO-1 viab 17.2.
`Cc1ccc(C)c(NC(=O)C2CN(S(=O)(=O)c3ccccc3)CCN2S(=O)(=O)c2ccccc2)c1` (configuration not stated) gave NOMO-1 viab 41.5.
For Cc1ccc(-c2nn(C(C)(C)C)c3ncnc(N)c23)cc1 the results were NOMO-1 viab 68.7.
For O=C(Nc1c(C(=O)NCc2ccco2)cnn1-c1ccccc1)c1cccc(F)c1 the results were NOMO-1 viab -0.5.
For C[C@H]1CN([C@@H](C)CO)C(=O)Cc2cc(NC(=O)Cc3ccccc3)ccc2O[C@@H]1CN(C)Cc1ccc(Oc2ccccc2)cc1 the results were NOMO-1 viab 74.9.
C[C@@H]1CN([C@H](C)CO)C(=O)c2cc(NC(=O)Nc3ccc(F)cc3)ccc2O[C@H]1CN(C)S(=O)(=O)c1cn(C)cn1 was read as NOMO-1 viab 22.3.
Screening O=C(c1ccc(NS(=O)(=O)c2cccc3cccnc23)cc1)N1CCOCC1 returned NOMO-1 viab -10.8.
Screening COc1ccc(NC(=O)COc2nc(N(C)C)nc(N(C)C)n2)cc1 returned NOMO-1 viab 14.7.
For CCC(C(=O)Nc1ccccc1C(=O)N1CCCC1)N1C(=O)c2ccccc2C1=O (configuration not stated) the results were NOMO-1 viab 5.0.
Screening C[C@H](CO)N1C[C@H](C)[C@H](CN(C)Cc2ccc(C(=O)O)cc2)Oc2ccc(NS(=O)(=O)c3ccc(F)cc3)cc2CC1=O returned NOMO-1 viab -3.6.
`COC(=O)C1=C[C@H](O[C@@H]2O[C@H](CO)[C@@H](O)[C@H](O)[C@H]2O)C[C@H]2[C@]3(C)C[C@@H](c4ccoc4)OC(=O)[C@H]3CC[C@@]12C` gave NOMO-1 viab 22.8.
Screening O=C(COc1ccc2ccccc2c1)Nc1ccccc1C(=O)Nc1ccccc1 returned NOMO-1 viab 20.8.
`C[C@H](CO)N1C[C@H](C)[C@H](CN(C)C(=O)NC2CCCCC2)Oc2ccc(NC(=O)NC3CCCCC3)cc2CC1=O` gave NOMO-1 viab 3.8.
Screening CC(C)NC(=O)Nc1cccc2c1O[C@@H](CN(C)CC1CCCCC1)[C@@H](C)CN([C@@H](C)CO)C2=O returned NOMO-1 viab -8.0.
`COC(=O)c1ccccc1NC(=O)C(C)Oc1cccc(Cl)c1` (configuration not stated) gave NOMO-1 viab 6.4.
For CCn1c(SCC(=O)Nc2cccc(Br)c2)nnc1-c1ccco1 the results were NOMO-1 viab 15.3.
COc1ccc(S(=O)(=O)NCCO)cc1-c1nnc2c3ccccc3c(C)nn12 was read as NOMO-1 viab 4.2.
`COc1ccc2c(=O)c(CC(=O)O)coc2c1` gave NOMO-1 viab 16.7.
For C[C@H]1CN([C@@H](C)CO)C(=O)c2cc(NC(=O)Nc3ccc4c(c3)OCO4)ccc2O[C@H]1CN(C)Cc1ccc(-c2ccccc2)cc1 the results were NOMO-1 viab 32.9.
For Cc1noc(C)c1NC(=O)Nc1ccc2c(c1)C(=O)N([C@H](C)CO)C[C@H](C)[C@@H](CN(C)S(=O)(=O)c1ccc(F)cc1)OCCCC[C@@H](C)O2 the results were NOMO-1 viab 2.0.
`COc1ccc(NC(=O)CN(c2ccc(F)c(Cl)c2)S(C)(=O)=O)cc1OC` gave NOMO-1 viab 14.4.
Screening Cc1cc(C(=O)Nc2cccc3c2O[C@@H](CN(C)CC2CCCCC2)[C@H](C)CN([C@H](C)CO)C3=O)n(C)n1 returned NOMO-1 viab 45.5.
For COc1ccc(-c2nnc(SCC(=O)O)n2C)cc1OC the results were NOMO-1 viab 8.6.

These rows are one share of the data; count on the stated rates, not on these rows.
